BJeLR viab HTS: lowers viability of BJeLR cells. BJeLR fibroblasts viability, CellTiterGlo ATP luminescence, 48 h; HRASV12, hTERT and SV40 LT/ST transformed. 0.64% of 30,000 active. viability loss activity score, % (concentration not given with the values); in the data active = viability loss activity score above about 50%; about a fifth of its hits are not listed in these tables;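 also: higher score means fewer live cells and less ATP luminescence; stock transfer was 50 or 100 nL into about 30 µL; 0% = vehicle wells and 100% = a reference killing control; one replicate is shown; the record names a cut of 85%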
A1 inh: inhibitors of A1; caspase activation, % (no concentration beside the values); AID 2241; MEF A1-2A-BIM cells, caspase-Glo luminescence, 3 h; percent of clofoctol signal, DMSO as zero; 0.51% of 21,000 active;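 active = most replicate scores above 10, or exactly half above 10 with mean activity above 10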;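 also: effector caspase 3 and 7 activity cleaving a DEVD luciferin substrate; 50 nL library stock added to about 30 µL; numbers are from one replicate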
An asterisk follows results filed as active; · = not tested or not shown. This is a subset, so the mix of outcomes need not match the whole.

Molecule | A1 inh | BJeLR viab HTS
CC1=CC(C)C2(COC(=O)Nc3ccccc3)COC(c3cccnc3)C1C2C (stereo not given) | 1.0 | -1.3
O=C(Oc1nnc(SCCS(=O)(=O)c2ccc(F)cc2)n1C1CC1)c1cccs1 | 0.7 | -4.6
COc1ccc(S(=O)(=O)N(C)C[C@H]2Oc3c(NC(=O)c4cc(C)nn4C)cccc3C(=O)N([C@H](C)CO)C[C@@H]2C)cc1 | · | 10
O=C(CSc1cn(CC(=O)N2CCCC2)c2ccccc12)Nc1ccccc1 | 0.5 | 5.1
COc1cccc(C(=O)CN2C3=NCCCN3c3ccccc32)c1 | · | 1.5
CC1=CC(c2ccoc2)c2c(oc(N)c(C#N)c2=O)S1 (stereo not given) | 0.2 | 1.2
COc1cc(C2CSc3nc4sc5c(c4c(=O)n32)CCCC5)cc(Cl)c1O (stereo not given) | -0.2 | 6.7
[N-]=C=N[n+]1ccc2ccccc2c1C(=O)c1ccc(Cl)cc1 | -0.6 | 1.2
O=C(/C=C/c1ccccc1Cl)N1CCCCC1 | -5.5 | 6.4
C[C@H]1CN([C@@H](C)CO)C(=O)c2cccc(NC(=O)C3CCCCC3)c2O[C@@H]1CN(C)Cc1ccc(C(=O)O)cc1 | · | -0.5

Additional results.
Molecule | A1 inh | BJeLR viab HTS
Cc1cc(-c2nn(C)c(=O)c3ccccc23)cc(C)c1O | -0.1 | -0.2
COc1ccc(-c2cc(C(F)(F)F)nc(SCCC(=O)Nc3ccccc3)n2)cc1 | -1.4 | 5.3
C[C@H](CO)N1C[C@H](C)[C@H](CN(C)CC2CCCCC2)Oc2ccc(NS(=O)(=O)c3cccs3)cc2C1=O | -0.3 | -1.8
COc1ccc(OC)c(S(=O)(=O)N2CCc3ccccc32)c1 | · | -0.1
O=C(OCC1OC2C(Oc3nc(=O)ccn32)C1O)c1ccccc1 (stereo not given) | 0.4 | 2.7
CCCCCCCC/C=C\C/C=C\C/C=C\CCCC(=O)O | -0.2 | -3.9
COc1c(O)cc([C@@H]2Oc3cc(O)cc(O)c3C[C@@H]2O)cc1O | 0.8 | 0.1
CC(C)S(=O)(=O)c1cnc(N2CCOCC2)nc1N | 1.6 | 5.1
C[C@@H]1CN([C@H](C)CO)C(=O)c2cc(NC(=O)Nc3cccc4ccccc34)ccc2O[C@@H]1CN(C)S(=O)(=O)c1ccc(F)cc1 | 0.6 | -3.1
Cc1ccccc1N=C(N)N=C(N)N | 0.1 | 1.5

Shown as labelled records: two of the compounds above
COc1ccc(S(=O)(=O)N(C)C[C@H]2Oc3c(NC(=O)c4cc(C)nn4C)cccc3C(=O)N([C@H](C)CO)C[C@@H]2C)cc1
  A1 inh: ·	BJeLR viab HTS: 10
O=C(CSc1cn(CC(=O)N2CCCC2)c2ccccc12)Nc1ccccc1
  A1 inh: 0.5	BJeLR viab HTS: 5.1

The list continues.
Molecule | A1 inh | BJeLR viab HTS
CC(C)NC(=O)N(C)C[C@H]1Oc2ccc(NS(=O)(=O)c3cn(C)cn3)cc2C(=O)N([C@H](C)CO)C[C@@H]1C | -0.1 | -6.7
Cc1nc(-c2ccncc2)nc(NCCNc2cc(C(F)(F)F)ccn2)c1Cl | -0.1 | -2.5
COCC(=O)Nc1ccc(-c2cn3cccnc3n2)cc1 | · | 3.8
COc1c(O)cc2c(=O)oc3c(OC)c(O[C@@H]4OC[C@@H](O)[C@H](O)[C@H]4O)cc4c(=O)oc1c2c34 | 0.3 | -9.5
O=C1CCCCCCCCCCC1CN1CCOCC1 (stereo not given) | · | -1.3
CCOC(=O)NC(=S)Nc1ccc(N2CC(C)OC(C)C2)cc1 (stereo not given) | 1.0 | -6.3
COc1ccc(NC(=O)N(C)C[C@@H]2Oc3c(NC(=O)c4ccc(-c5nccs5)cc4)cccc3C(=O)N([C@@H](C)CO)C[C@H]2C)cc1 | · | -4.1
CCOC(=O)/C(C#N)=c1/s/c(=C2/C=Cc3ccccc3N2CC)c(=O)n1CC | 0.2 | 4.0
Cc1onc(-c2c(F)cccc2Cl)c1C(=O)N[C@@H]1C(=O)N2C(C(=O)O)C(C)(C)S[C@H]12 (stereo not given in full) | 0.3 | -5.4
CC(C)(C)C(=O)OC[C@H]1O[C@@H](n2cnc3c(N)ncnc32)C[C@@H]1OC(=O)C(C)(C)C | -0.1 | -4.2

Next compounds:
Molecule | A1 inh | BJeLR viab HTS
COC(=O)c1cc(N)c(Cl)s1 | · | 0.2
CCOC(=O)c1sc2nc3n(c(=O)c2c1C)N=C(c1cc2cc(Cl)ccc2oc1=O)CS3 | 0.9 | -3.0
COc1cc(O)c(C(=O)Cc2ccc(Cl)cc2)c(OC)c1 | 0.1 | 2.3
O=C(O)C1CC=CCC1C(=O)NCCc1csc(-c2ccccc2)n1 (stereo not given) | 0.8 | 4.6
Cc1cc(N2CCN(c3ccccc3)CC2)n2ncnc2n1 | · | 6.9
CC(C)(C)C(=O)NC(=S)Nc1cc(C(F)(F)F)cc(C(F)(F)F)c1 | -1.0 | -4.6
CC(C)NC(=O)Nc1cccc2c1O[C@H](CN(C)C(=O)Nc1ccc3c(c1)OCO3)[C@@H](C)CN([C@H](C)CO)C2=O | · | -3.3
C=CCn1c2ccccc2c2nnc(SCc3ccccc3F)nc21 | -0.8 | 2.0
C[C@@H]1CN([C@@H](C)CO)C(=O)c2cccc(NC(=O)C3CC3)c2O[C@@H]1CN(C)Cc1ccc(C(=O)O)cc1 | · | -1.0
C[C@H]1CN([C@@H](C)CO)C(=O)c2cc(NS(=O)(=O)c3ccccc3)ccc2O[C@@H]1CN(C)S(C)(=O)=O | 0.5 | -3.8

Continued:
Molecule | A1 inh | BJeLR viab HTS
C[C@H](CO)N1C[C@H](C)[C@H](CN(C)S(=O)(=O)c2ccc(Cl)cc2)Oc2c(NS(C)(=O)=O)cccc2C1=O | · | 2.0
O=C(COc1ccccc1)Nc1cccc(-c2nc3cccnc3s2)c1 | 1.0 | 0.9
N#Cc1cccc(NC(=O)CCCC(=O)Nc2cccc(C#N)c2)c1 | 0.2 | 0.5
C[C@H](CO)N1C[C@H](C)[C@@H](CN(C)CC2CC2)Oc2c(NS(=O)(=O)c3cccs3)cccc2C1=O | · | -4.7
O=C(O)CCCSc1nc2ccccc2s1 | -5.7 | -1.2
Cc1noc(C)c1NC(=O)Nc1ccc2c(c1)C(=O)N([C@@H](C)CO)C[C@H](C)[C@@H](CN(C)Cc1ccc(C(F)(F)F)cc1)O2 | -0.8 | -0.3
Cc1noc(C)c1NC(=O)Nc1cccc2c1O[C@@H](CN(C)S(=O)(=O)c1ccc(Cl)cc1)[C@H](C)CN([C@@H](C)CO)C2=O | · | -9.1
CCOC(=O)N1CCc2c(sc3[nH]c(=S)n(-c4ccccc4)c(=O)c23)C1 | -0.4 | 0.5
O=C(CNC(=S)N(Cc1ccccc1)Cc1ccccc1F)N1CCCC1 | 0.7 | 1.3
Cc1noc(C)c1NC(=O)Nc1ccc2c(c1)C(=O)N([C@@H](C)CO)C[C@@H](C)[C@@H](CN(C)Cc1ccc(C(F)(F)F)cc1)O2 | 0.1 | -2.2

Overlap with the part before: 4 entries, then new ones.
Molecule | A1 inh | BJeLR viab HTS
Cc1noc(C)c1NC(=O)Nc1cccc2c1O[C@@H](CN(C)S(=O)(=O)c1ccc(Cl)cc1)[C@H](C)CN([C@@H](C)CO)C2=O | · | -9.1
CCOC(=O)N1CCc2c(sc3[nH]c(=S)n(-c4ccccc4)c(=O)c23)C1 | -0.4 | 0.5
O=C(CNC(=S)N(Cc1ccccc1)Cc1ccccc1F)N1CCCC1 | 0.7 | 1.3
Cc1noc(C)c1NC(=O)Nc1ccc2c(c1)C(=O)N([C@@H](C)CO)C[C@@H](C)[C@@H](CN(C)Cc1ccc(C(F)(F)F)cc1)O2 | 0.1 | -2.2
CCOC(=O)c1cccc(NC(=O)CCOc2ccccc2)c1 | -0.2 | 2.1
O=C1NC(=S)S/C1=C/c1ccc(-c2ccc3c(c2)C(=O)NC3=O)o1 | 1.3 | 2.9
COc1ccc(S(=O)(=O)N(C)C[C@H]2Oc3c(NS(=O)(=O)c4ccc(Cl)cc4)cccc3C(=O)N([C@@H](C)CO)C[C@H]2C)cc1 | · | -3.4
COc1ccc2cc(C(C)c3nc4ccccc4[nH]3)ccc2c1 (stereo not given) | 0.5 | -4.4
C[C@H](CO)N1C[C@H](C)[C@@H](CN(C)Cc2ccc(C(=O)O)cc2)Oc2ccc(NC(=O)Nc3cccc4ccccc34)cc2C1=O | 0.5 | 5.6
COc1ccc(CN(C)C[C@H]2Oc3c(NS(=O)(=O)c4ccc(OC)cc4)cccc3C(=O)N([C@@H](C)CO)C[C@H]2C)cc1 | · | -9.6
C[C@@H]1CN([C@H](C)CO)C(=O)c2cc(NS(=O)(=O)c3ccc(Cl)cc3)ccc2O[C@@H]1CN(C)C | -0.1 | -0.7
Cn1c(=O)c(C(=O)/C=C/C=C/c2ccccc2)c(O)c2ccccc21 | · | -6.0
c1ccc(N=c2scc(-c3ccccc3)n2CCN2CCOCC2)cc1 | 0.3 | -2.1
COc1ccc(S(=O)(=O)N(C)C[C@H]2Oc3c(NC(=O)Nc4c(C)noc4C)cccc3C(=O)N([C@H](C)CO)C[C@H]2C)cc1 | · | -1.6

More results follow:
Molecule | A1 inh | BJeLR viab HTS
CC(=O)Nc1c(-c2cccc(C(F)(F)F)c2)c(C(F)(F)F)nn1C | · | 12
CC1(c2ccccc2)CC(C)(C)N(C(=O)c2ccco2)c2ccccc21 (stereo not given) | 0.4 | -6.6
O=C(/C=C/c1ccccc1)Nc1nnc(CSCc2ccccc2F)s1 | -0.4 | 2.0
C[C@@H]1CN([C@H](C)CO)C(=O)c2cc(NS(C)(=O)=O)ccc2O[C@H]1CN(C)Cc1ccc(C(F)(F)F)cc1 | 0.6 | 1.0
C[C@@H]1CN([C@H](C)CO)C(=O)c2cccc(NC(=O)Nc3ccc4c(c3)OCO4)c2O[C@@H]1CN(C)C(=O)Nc1cccc2ccccc12 | · | -2.7
CNC[C@H]1Oc2c(NS(=O)(=O)c3ccc(Cl)cc3)cccc2C(=O)N([C@@H](C)CO)C[C@H]1C | · | 2.0
C[C@@H]1CN([C@@H](C)CO)C(=O)c2cc(NC(=O)Nc3cccc4ccccc34)ccc2O[C@H]1CN(C)S(=O)(=O)c1cccs1 | 0.5 | -2.6
Cc1cccn2cc(-c3cccc(NC(=O)c4ccccc4)c3)nc12 | · | 1.4
Cc1cc(C(=O)Nc2cccc3c2O[C@H](CN(C)Cc2ccc(-c4ccccc4)cc2)[C@H](C)CN([C@@H](C)CO)C3=O)n(C)n1 | · | 1.5
COc1ccc(S(=O)(=O)n2c(SCc3ccc(C(F)(F)F)cc3)nc3ccccc32)cc1 | -0.3 | 8.4

Remaining list, next part
Molecule | A1 inh | BJeLR viab HTS
CC(NC(=O)/C=C/c1ccccc1Cl)c1ccccc1 (stereo not given) | -0.4 | -7.9
C[C@H]1CN([C@@H](C)CO)C(=O)c2cc(NS(C)(=O)=O)ccc2O[C@@H]1CN(C)Cc1ccc(-c2ccccc2)cc1 | -0.3 | 1.7
CC(C)NC(=O)N(C)C[C@H]1Oc2c(NS(=O)(=O)c3ccc(Cl)cc3)cccc2C(=O)N([C@@H](C)CO)C[C@H]1C | · | 1.2
Nc1cc(N)nc(SCc2ccccc2)n1 | -0.4 | 4.8
COc1ccc(-c2nnc(NC(=O)c3ccc(S(=O)(=O)N4CCC(C)CC4)cc3)o2)c(OC)c1 | · | 0.2
Cc1ccccc1OCC(=O)NC(c1ccccc1)c1c(O)ccc2ccccc12 (stereo not given) | 0.6 | 5.4
CCCc1ccc(Oc2ccc(NC(=O)C3CC3C(=O)O)cn2)c(OC)c1 (stereo not given) | 0.8 | 3.3
O=C(CCCc1ccccc1)Nc1scc2c(=O)oc3ccccc3c12 | · | 0.3
COc1ccc(CN(C)C[C@H]2Oc3c(NC(=O)C4CCCCC4)cccc3C(=O)N([C@H](C)CO)C[C@@H]2C)cc1 | · | -1.8
O=C(NCCC1=CCCCC1)C(c1ccccc1)c1ccccc1 | -1.3 | 6.8

Other compounds follow:
Molecule | A1 inh | BJeLR viab HTS
C[C@@H]1CN([C@@H](C)CO)C(=O)c2cccc(NC(=O)C3CCOCC3)c2O[C@H]1CN(C)Cc1ccc(C(=O)O)cc1 | · | 0.0
Cc1ccc(S(=O)(=O)Nc2ccc3c(c2)C(=O)N([C@@H](C)CO)C[C@H](C)[C@@H](CN(C)S(=O)(=O)c2ccccc2)O3)cc1 | 0.0 | 1.7
COc1ccc(S(=O)(=O)N(C)C[C@H]2Oc3c(NC(=O)NC4CCCCC4)cccc3C(=O)N([C@@H](C)CO)C[C@H]2C)cc1 | · | -3.2
CCOC(=O)c1cnc2cccc[n+]2c1Cl | 0.5 | 0.5
Cc1nn(C(C)C(=O)NC2CCCCCC2)c(=O)c2cc3occc3n12 (stereo not given) | 0.4 | -3.7
C[C@H](CO)N1C[C@H](C)[C@H](CN(C)S(=O)(=O)c2ccc(F)cc2)Oc2ccc(NS(=O)(=O)c3cn(C)cn3)cc2C1=O | -0.3 | -3.5
CCn1c(N)c(C(=O)N2CCCCC2)sc1=S | · | 0.4
O=C1C=C(NC2CCCC2)CC(c2ccccc2)C1 (stereo not given) | 1.2 | 7.1
NC(=O)CSc1nc2cc3c(cc2c(=O)n1CCCC(=O)NCc1ccc2c(c1)OCO2)OCO3 | -0.6 | 2.3
COc1ccc(S(=O)(=O)Nc2ccc3c(c2)C(=O)N([C@@H](C)CO)C[C@@H](C)[C@H](CN(C)S(=O)(=O)c2cn(C)cn2)O3)cc1 | -0.2 | -1.3

Screening results from PubChem BioAssay.
